Screens deposited in PubChem BioAssay by SRMLSC.
H5N1 antiviral: MDCK cell protection from H5N1 avian flu; hit rate 0.07% among 96,000; cytopathic effect, luminescence, 72 h; hits give high values; no value below 0 was filed and about half of the inactive calls have no number; reference of the scale not given here; inhibition, % at 50 µM; in the data active = inhibition above about 25%
* hit, by the source's call; i = inactive. Some of the compounds tested; rates above refer to the full screens.

SMILES | H5N1 antiviral
CCN(CC)c1nc(-c2ccccc2)cc(C(F)(F)F)c1C#N | 0.1
COc1ccc(C(=O)c2c[nH]c(C(=O)NCc3cccs3)c2)cc1 | 0.9
CCOC(=O)c1[nH]c2ccccc2c1NC(=O)c1ccc2c(c1)OCO2 | 0.8
COc1ccc(N/C=C(/C(C)=O)c2ccccc2)cc1 | i
Cc1c(C(=O)NCCN2CCOCC2)oc2ccc(S(=O)(=O)N3CCCCCC3)cc12 | 4.0
Cc1ccc(CNC(=O)C(OC(=O)c2ccco2)C(C)C)cc1 (stereo not drawn) | 0.4
COc1cccc(NC(=O)COC(=O)c2ccco2)c1 | 0.8
COc1ccccc1NC(=O)CSc1nnc(-c2ccccc2)o1 | i
Cc1ccc(-n2c3c(c(=O)[nH]c2=S)C(C(F)(F)F)(C(F)(F)F)NC(=O)N3)cc1 | i
CCn1c(SCC(=O)N2CCN(c3ccc(F)cc3)CC2)nc2ccccc2c1=O | 4.8
C1CCCN(CCCCN2CCCCCC2)CC1 | i
COCCNC(=O)C(OC(=O)c1cccs1)c1ccccc1 (stereo not drawn) | i
CCN1CCC(NC(=O)c2cc(OC)c(OC)cc2OC)CC1 | 2.4
COC(=O)c1ccc(-c2nn(C)c(=O)c3ccccc23)cc1 | 1.7
CCOC(=O)C1=C(C)NC(=O)C(C(N)=O)C12CCCC2 (stereo not drawn) | 0.2
O=C(CCCCCN1C(=O)c2ccccc2C1=O)NCCc1nc2ccccc2[nH]1 | 0.2
O=C(Oc1cccnc1)c1cccc(Cl)c1 | i
Cc1ccc(S(=O)(=O)N(CC(O)CN2CCCC2)c2ccccc2)cc1 (stereo not drawn) | i
OC(COc1ccc2ccccc2c1Br)Cn1ccnc1 (stereo not drawn) | 0.5
CC(C)C(C(=O)O)N1C(=O)/C(=C/C=C/c2ccco2)SC1=S (stereo not drawn) | i
C=CCNc1oc(Cc2cccc3ccccc23)nc1C#N | 0.7
Cc1nn(CC(=O)Nc2ccc(C(=O)N3CCCC3)cc2)c(=O)c2ccccc12 | 0.2
Cn1c(C(C#N)C2=C(Cl)C(=O)N(c3ccccc3)C2=O)nc2ccccc21 (stereo not drawn) | 1.0
COc1nc(NCC(C)C)nc(Oc2ccc(=O)n(-c3ccccc3)n2)n1 | 0.7
Cc1ccc(C)c(NC(=S)N2CCC(c3nc4ccccc4s3)CC2)c1 | i
More records:
SMILES | H5N1 antiviral
O=C(NC(=S)Nc1ccccc1N1CCCC1)c1ccc(-c2cccc([N+](=O)[O-])c2)o1 | i
Cc1cc(C)n(Cc2ccc(NC(=O)c3nn(C)cc3[N+](=O)[O-])cc2)n1 | 1.5
CCOC(=O)Cc1csc(NC(=O)CSc2nnc(-n3nc(C)cc3C)c3ccccc23)n1 | i
CC1(C)OC(=O)C(=CNC(CCC(N)=O)C(=O)O)C(=O)O1 (stereo not drawn) | 0.3
Brc1ccc(Oc2nnnn2-c2ccccc2)cc1 | 1.3
CCNc1nc(NC(C)C)nc(SCCOc2ccc(C)cc2)n1 | 12.8
Cc1cccn2cc(CNc3ccccc3)nc12 | i
COc1ccccc1-c1noc(-c2ccccc2C(=O)N2CCOCC2)n1 | i
Cc1cc2nnc(SC3CCOC3=O)n2c2ccccc12 (stereo not drawn) | 2.0
COc1ccc(C(=O)Nn2c(SCC(=O)NC3CCCCC3)nc3ccccc3c2=O)cc1 | 0.2
COC(=O)c1ccc(N2C(=O)CC(N3CCN(C(=O)c4ccco4)CC3)C2=O)cc1 (stereo not drawn) | 0.9
Nc1nc(-c2cccnc2)nn1C(=O)c1ccco1 | 0.5
COC(c1ccccc1)c1c(-c2ccccc2)nn(C)c1Cl (stereo not drawn) | 0.2
CCCCn1c(N(CCOC(C)=O)C(C)=O)nc2ccccc21 | 0.6
Cc1cc(N2CCC(C)CC2)c(F)cc1[N+](=O)[O-] | 0.1
Cc1cc(C)n2c(SCc3ccc(Cl)cc3Cl)nnc2n1 | 0.5
CSc1cccc(NC(=O)CSc2ccc(C)cc2)c1 | i
COc1ccc2[nH]c(=O)c(CN(Cc3cccnc3)C(=O)Nc3ccccc3)cc2c1 | 0.6
CC(C)SCc1nc2ccccc2[nH]1 | 0.4
CC(=O)Nc1ccc2c(c1)nc(CN1CCCC1)n2C | 0.4
CN(C)C(=O)Nc1ccc(F)cc1F | i
COc1ccc(-n2cccc2C=O)cc1OC | i
O=C(Cn1cnc2ccccc2c1=O)N1CCN(Cc2ccc3c(c2)OCO3)CC1 | 0.1
CCOc1ccc(NC2=C(Cl)C(=O)N(Cc3ccccc3)C2=O)cc1 | i
O=C(NCc1ccccc1)N(Cc1cc2cc3c(cc2[nH]c1=O)OCCO3)CC1CCCO1 (stereo not drawn) | 1.0

Entries listed so far that contain an aryl methoxy group, in the order listed:
SMILES | H5N1 antiviral
COc1ccc(C(=O)c2c[nH]c(C(=O)NCc3cccs3)c2)cc1 | 0.9
COc1ccc(N/C=C(/C(C)=O)c2ccccc2)cc1 | i
COc1cccc(NC(=O)COC(=O)c2ccco2)c1 | 0.8
COc1ccccc1NC(=O)CSc1nnc(-c2ccccc2)o1 | i
CCN1CCC(NC(=O)c2cc(OC)c(OC)cc2OC)CC1 | 2.4
COc1nc(NCC(C)C)nc(Oc2ccc(=O)n(-c3ccccc3)n2)n1 | 0.7
COc1ccccc1-c1noc(-c2ccccc2C(=O)N2CCOCC2)n1 | i
COc1ccc(C(=O)Nn2c(SCC(=O)NC3CCCCC3)nc3ccccc3c2=O)cc1 | 0.2
COc1ccc2[nH]c(=O)c(CN(Cc3cccnc3)C(=O)Nc3ccccc3)cc2c1 | 0.6
COc1ccc(-n2cccc2C=O)cc1OC | i

(list continues)
SMILES | H5N1 antiviral
O=C(Cn1cnnn1)OCC(=O)c1ccc(Cl)s1 | i
COc1ccc(OC)c(NC(=O)CCn2cccc2)c1 | i
CCc1noc(C)c1C(=O)Nc1sc(C(=O)N(C)C)c(C)c1C(=O)OC | i
O=C(CSc1nnnn1C1CCCCC1)NCc1ccccc1 | 0.1
CCOc1ccc(NC(=O)Nc2ccc3c(c2)N(C)C(=O)CS3)cc1 | 0.6
OCC1N=C(c2ccccn2)OC1c1ccccc1 (stereo not drawn) | 1.0
Brc1cccc(-c2nnc(SCc3ccon3)n2-c2ccccc2)c1 | 0.6
CC(C)CNc1nc(Oc2ccc(=O)[nH]n2)nc(N(C)C)n1 | i
C/C=C/c1ccc(OCCN2C(=O)NC(C)(C)C2=O)c(OC)c1 | i
O=C(CN1CCOCC1)NCC(=O)Nc1ccc(Br)cc1C(=O)c1ccccc1 | i
COc1ccc(C(=O)COC(=O)CCN2C(=O)C3C4CC(C(Br)C4Br)C3C2=O)cc1 (stereo not drawn) | i
Cn1c(Cn2c(=O)sc3ccccc32)nnc1SCc1cccnc1 | 0.2
C[C@H](NC(=O)OC(C)(C)C)c1nnc(SCC(=O)c2ccc(Cl)cc2)o1 | 1.5
Cc1nc2ccc(S(=O)(=O)NCC(=O)N3CCCC(C)C3)cc2s1 (stereo not drawn) | 0.9
Cc1sc(NC(=O)CSc2nnc(-c3ccc(F)cc3)o2)c(C#N)c1C | i
CC(C)(C)NC(=O)CSc1nncn1NCc1cccc2ccccc12 | 1.0
Cc1ccc(-n2c(N)c(C(=O)N3CCCCC3)sc2=S)cc1 | 1.2
CCOC(=O)N1CCC(N2C(=O)c3ccc(C(=O)NCc4ccc(F)cc4)cc3C2=O)CC1 | 0.8
Cc1cc(N2CCCCCC2)nc2ccccc12 | 0.4
COc1cc2c(C(=O)NCc3ccccn3)cn(C)c(=O)c2cc1OC | 1.5
O=C(Cn1ncc2c1-c1ccccc1OC2)Nc1cccc(Cl)c1 | i
COc1ccc(C(C(=O)NCc2ccccc2)N(Cc2ccc3c(c2)OCO3)C(=O)c2cnccn2)cc1 (stereo not drawn) | 0.3
COc1ccc(CNC(=O)c2cnccn2)cc1 | 0.2
CCOc1ccc(-n2c(O)c(C=Nc3ccc(N(CC)CC)cc3)c(=O)[nH]c2=O)cc1 | 0.7
CCN(Cc1cc2cc(C)ccc2[nH]c1=O)C(=O)c1cccc(OC)c1 | 2.0
Later entries
SMILES | H5N1 antiviral
Cc1nnc(NC(=O)C2CCN(c3nnnn3-c3ccccc3)CC2)s1 | 0.7
CCCCN1C(=O)C(O)(CC(=O)c2c(C)n[nH]c2C)c2cc(Br)ccc21 (stereo not drawn) | i
CC1CC(=O)C=C(O)C1C(=O)OC(C)(C)C (stereo not drawn) | i
CCOC(=O)N1CCC(NC(=O)c2cc3c(-c4ccc(OC)c(OC)c4)nn(C)c3s2)CC1 | i
CC1(C)Cc2c(cnn2-c2ccccc2)-c2c1c1ccccc1n2CC(O)CBr (stereo not drawn) | 17.4
CCc1ccc2[nH]c(=O)c(CN(CCCN3CCOCC3)C(=O)Nc3ccc(Cl)cc3)cc2c1 | i
CCCc1c(C)c2cc(C)ccc2[nH]c1=O | 0.7
Cc1ccc2[nH]c(=O)c(CN(CCCN3CCOCC3)C(=O)NC3CCCCC3)cc2c1 | i
COc1ccc(NC(=O)N(CCc2ccccc2)Cc2cc3c(C)cc(C)cc3[nH]c2=O)cc1 | 0.2
CC(C)CCNC(=O)NC(=O)COC(=O)C1=COCCO1 | i
O=C(NC1CCS(=O)(=O)C1)c1cccc(S(=O)(=O)N2CCCCC2)c1 (stereo not drawn) | i
Cc1ccc(C)c(-n2nnnc2SCC(=O)Nc2cccc(-c3nnc4n3CCCCC4)c2)c1 | 0.1
CCN(c1ccccc1)S(=O)(=O)c1ccc(NCC2COc3ccccc3O2)nc1 (stereo not drawn) | 4.1
CC(Oc1ccc(Cl)cc1)c1ccnn1S(=O)(=O)c1ccc(Cl)cc1 (stereo not drawn) | 1.2
Cc1ccc(-c2cc(C(=O)NCc3ccc4c(c3)OCO4)[nH]n2)c(O)c1C | i
Cc1cccc(CS(=O)(=O)Cc2ccc(C(=O)NCc3cccnc3)o2)c1 | 0.9
O=C(CCS(=O)(=O)Cc1ccc(Cl)cc1)NCCCN1CCOCC1 | 1.0
O=C(NCc1ccccn1)c1cc2ccccc2oc1=O | i
Clc1ccc(Cc2noc(Cc3ccccc3)n2)cc1Cl | 1.1
COc1ccc(N2CCn3c2nc2c3c(=O)n(CCCc3ccccc3)c(=O)n2C)c(OC)c1 | i
Cc1onc(-c2ccccc2Cl)c1C(=O)Nc1cccc2nsnc12 | i
CC(C)c1nc2oc3c(NCc4cccnc4)ncnc3c2c2c1CCC2 | 1.4
CC1CCCN(CCCNC(=O)C2CC(=O)N(c3ccc(F)c(Cl)c3)C2)C1 (stereo not drawn) | i
Cc1cc(C)n(-c2nc(C)nc(NCc3ccccc3)n2)n1 | 1.3
CC(=O)Nc1cc(NC(=O)C2C3C=CC(C3)C2C(=O)O)ccc1Cl (stereo not drawn) | i

Next part; the last 2 above are carried over.
SMILES | H5N1 antiviral
Cc1cc(C)n(-c2nc(C)nc(NCc3ccccc3)n2)n1 | 1.3
CC(=O)Nc1cc(NC(=O)C2C3C=CC(C3)C2C(=O)O)ccc1Cl (stereo not drawn) | i
COc1cccc(CNC(=O)Cc2c(C(=O)O)[nH]c3ccccc23)c1 | 0.4
COC(=O)c1ccccc1S(=O)(=O)N1CCC(c2nc3ccccc3o2)CC1 | 0.3
O=C(NC12CC3CC(CC(C3)C1)C2)N1CCC(O)(c2ccc3c(c2)OCO3)CC1 | i
Cc1ccc(S(=O)(=O)Cn2nnnc2CN2CCN(Cc3ccc4c(c3)OCO4)CC2)cc1 | i
COC(=O)C1C(=O)CC(C)(O)C(C(=O)OC)C1c1ccccc1F (stereo not drawn) | 0.7
COC(=O)C1(C)NC(c2ccc(O)cc2)C2C(=O)N(c3ccc4c(c3)OCCO4)C(=O)C21 (stereo not drawn) | 1.1
c1ccc(CCc2nc(-c3ccccn3)no2)cc1 | 1.4
O=C(Cn1c(-c2ccccc2)noc1=O)NCc1ccccc1 | 0.0
CCOC(=O)N1CCN(C(=O)C2CC(c3ccc(F)cc3)=NO2)CC1 (stereo not drawn) | i
CC(C)CC1C(C#N)=C(N)Oc2c1c(=O)oc1ccccc21 (stereo not drawn) | 1.2
CCOC(=O)N1CCN(C(=O)CN(Cc2ccc(Cl)cc2)S(C)(=O)=O)CC1 | 0.4
COCCNc1nc2ccccc2nc1NS(=O)(=O)c1ccc(C)cc1C | 1.1
CCn1c(SCC(=O)Nc2ccccc2C(=O)OC)nnc1-c1cccc(C)c1 | 0.7
Cc1nn(-c2nc(-c3ccco3)cc(C(F)(F)F)n2)c(C)c1Cl | i
CC(C)(CO)Nc1ccc([N+](=O)[O-])cc1[N+](=O)[O-] | i
CCOC(=O)N1CCC(NC(=O)CCC(=O)N2CC(C)Oc3ccc(C)cc32)CC1 (stereo not drawn) | i
CCCOc1ccc(Cc2nn3c(=O)/c(=C/c4ccco4)sc3nc2=O)cc1 | i
CCN(CC)C(=O)c1cncc(C(=O)N(CC)CC)c1-c1ccccc1 | i
Cc1ccc(Cl)cc1NC(=O)Cn1cccc1 | 1.7
O=C(NCc1ccc2c(c1)OCO2)c1cccc(Cl)c1 | i
c1ccc2c(c1)c1ccccc1n1c(-c3ccc4c(c3)OCO4)nnc21 | 3.4
COc1ccc(S(=O)(=O)n2nc(C)cc2C)c(C)c1C | 1.1
COc1ccc(OC)c(NC(=O)C2CCCN2C(=O)OCc2ccccc2)c1 (stereo not drawn) | 0.2
O/N=C1/C2C3CC4C5C3C1C5C1(OCCO1)C42 (stereo not drawn) | 1.3
O=C1CSc2ccc(C(=O)NCCC3=CCCCC3)cc2N1 | 2.0
Going on with the list:
SMILES | H5N1 antiviral
O=c1[nH]cnc2scc(-c3ccc(-c4ccccc4)cc3)c12 | i
COc1ccc(-c2nc(-c3ccc(Br)o3)no2)cc1 | i
COc1ccc(NC(=O)c2cccc(F)c2)cc1Cl | 1.9
O=C(NCc1ccco1)Nc1ccc(Br)cc1 | 0.5
Cc1cccc2cc3c(nc12)SC(=NCC1CCCO1)N(Cc1ccco1)C3 (stereo not drawn) | 1.5
Cc1cc(NCc2ccc(F)cc2Cl)n2nnnc2n1 | i
CCCn1c(=O)c2ccccc2n2c(SCCOc3ccccc3)nnc12 | 2.2
